Insulin prom inh: TRM-6 insulin promoter activity inhibition. TRM-6 cells (human fetal islet line), insulin promoter-eGFP reporter, imaging; reporter expression induced with tamoxifen. 130,000 tested, 0.9% active. inhibition, % at 2 µM. AID 1273;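 active means inhibition above the mean plus 3 SD, with well images judged a real hit on visual review, cut at about 60% in these data, passing the limit was not always enough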
HSV replic up: increases HSV replication in cells | 220,000 tested, 0.005% active | AID 1956 | maximum fold increase | HSV replication augmentation in cells, fold increase;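 active means peak rise of 1.5-fold or more in the series; tested in PC3 cells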;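 further: first round at 10 µM; read as green reporter fluorescence; hits show the peak of a series up to 25 µM; 1 = signal of infected wells without compound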
GALR2 ag: GALR2 (human) receptor agonism; O43603; GALR2-expressing cells, agonist activation read-out; activation, %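 (tested at 5 µM)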; 140,000 tested, 0.48% active;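 active means above mean plus 3 SD of all compounds, about 5% in these data, not always enough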;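 further: 0% = vehicle buffer wells and 100% = reference agonist at full effect; tested in CHO reporter cells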
PKD1 kinase inh: blocks activity of human protein kinase D1. Q15139. PKD1 kinase fluorescence polarization assay. inhibition, %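 (about 10 µM by stock and volumes)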. 200,000 tested, 0.056% active. AID 797;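 active means inhibition of 50% or more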;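 further: controls were vehicle for no effect and a reference inhibitor for full effect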
Target sequence (Q15139 whole entry, looked up): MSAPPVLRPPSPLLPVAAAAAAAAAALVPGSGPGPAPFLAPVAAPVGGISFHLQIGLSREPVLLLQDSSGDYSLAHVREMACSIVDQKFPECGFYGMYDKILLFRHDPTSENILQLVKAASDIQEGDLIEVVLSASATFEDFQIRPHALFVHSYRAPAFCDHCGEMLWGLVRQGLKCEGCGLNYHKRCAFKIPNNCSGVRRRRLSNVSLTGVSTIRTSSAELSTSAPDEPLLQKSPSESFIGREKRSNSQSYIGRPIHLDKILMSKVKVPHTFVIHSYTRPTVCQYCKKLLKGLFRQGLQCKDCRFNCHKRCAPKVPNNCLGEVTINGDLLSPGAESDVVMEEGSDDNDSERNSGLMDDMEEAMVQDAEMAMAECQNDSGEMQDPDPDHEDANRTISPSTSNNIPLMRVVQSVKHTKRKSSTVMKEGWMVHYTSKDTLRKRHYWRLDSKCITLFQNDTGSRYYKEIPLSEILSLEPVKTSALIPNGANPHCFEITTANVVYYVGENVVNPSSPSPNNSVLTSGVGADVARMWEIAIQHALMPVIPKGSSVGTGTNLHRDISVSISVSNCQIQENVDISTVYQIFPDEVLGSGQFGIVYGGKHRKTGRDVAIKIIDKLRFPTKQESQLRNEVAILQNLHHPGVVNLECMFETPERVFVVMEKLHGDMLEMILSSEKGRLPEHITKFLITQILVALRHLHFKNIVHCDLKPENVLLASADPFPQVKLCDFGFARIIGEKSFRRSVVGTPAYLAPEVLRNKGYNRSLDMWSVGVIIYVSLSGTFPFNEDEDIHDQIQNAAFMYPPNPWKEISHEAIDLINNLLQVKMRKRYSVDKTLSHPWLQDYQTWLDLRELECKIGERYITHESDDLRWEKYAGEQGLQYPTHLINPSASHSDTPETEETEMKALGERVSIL
RGS16-Gao: RGS16-Galphao interaction regulator (human) | O15492+P09471 | 220,000 tested, 0.38% active | bead-based flow cytometry RGS16-Galphao binding, fluorescence; actives lie on both sides | AID 1441 | binding response (% of control), % at 10 µM;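 active means below 25% or above 175%, edge rows of some plates excepted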;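 further: Galphao activated by GDP with aluminum fluoride before binding; 100% = wells without compound and 0% = beads without RGS; some results beyond the cut were filed as inactive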
Insulin prom inh cell count: second read-out of Insulin prom inh, no call of its own (marks repeat the call); normalized cell count, %; measured here: cell count, toxicity; reference of the scale not given here;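 cells exposed to compound for 48 h; stained nuclei by imaging scaled within each plate; lower means fewer cells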
HSV replic up primary fold: also measured in HSV replic up; calls as there; fold increase; compound at 10 µM; measured here: primary screen fold increase 10 uM; tested in PC3 cells;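 GFP signal in the first replicate; 1 = infected wells without compound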
Active calls of the source: *; i = inactive; . = no result given; & = joins results of further samples. Compounds were not picked by outcome. About 1.3% of those tested had a hit in this group.

SMILES	Insulin prom inh	Insulin prom inh cell count	HSV replic up	HSV replic up primary fold	GALR2 ag	PKD1 kinase inh	RGS16-Gao
O=C(CCSCc1ccccc1Cl)NC1CCCC1	7	57	i	0.97	-0.7	-14	96
CCOC(=O)c1c(C)n(-c2ccccc2)c2ccc(O)cc12	-19	174	i	0.9	.	-11	102
CCOc1ccc(-n2c(SCC(N)=O)nc3c([nH]c4ccccc43)c2=O)cc1	.	.	i	0.88	-2.6	0	112
CCCc1ccc(C(=O)NNC(=O)c2ccc(Br)cc2)cc1	36	125	i	0.89	0.0	-9	99
Nc1ccc(S(=O)(=O)O)cn1	-39	197	i	0.92&0.87&0.93	.	-3	104&96&104
COc1ccc2c(c1)CCc1c(C(=O)NCc3cccnc3)noc1-2	0	100	.	.	-1.8	5	92
COC(=O)C1=C(C(=O)OC)[C@@H]2N(C)c3ccccc3[C@@]23C[C@@H](C(=O)OC)N=C3N1	.	.	i	0.92	.	.	90
COC(=O)c1sccc1NC(=O)C12CC3CC(CC(C3)C1)C2	48	127	i	1.1	-1.1	-8	.
O=C(Nc1cccc(NC(=O)c2cccs2)c1)c1ccco1	29	118	i	0.95	-1.4	-6	95
Cc1ccc2sc(NC(=O)CSc3nc(C)cc(C)c3C#N)nc2c1	-22	99	i	0.73	0.3	3	97
COc1cc(/C=N/NC(=O)C(=O)N2CCCC2)ccc1O	12	137	i	0.91	-3.6	-3	103
O=c1cc(N2CCN(Cc3ccccc3)CC2)[nH]c(=O)n1-c1cccc(C(F)(F)F)c1	19	140	i	1	-0.9	-2	98
CCn1c(SCC(=O)Nc2ccc(NC(=O)c3ccco3)c(OC)c2)nc2ccccc2c1=O	.	.	i	0.86	-1.4	5	98
COc1ccc(S(=O)(=O)N(CC(=O)N/N=C/c2ccccc2C(=O)O)c2ccccc2OC)cc1	.	.	i	0.88	.	.	103
COc1cc(C2CC(=O)NC(SCC(=O)Nc3ccccc3C)=C2C#N)ccc1O (stereo not drawn)	.	.	i	1.1	-0.9	-10	101

In another format: entries from further up
| compound | Insulin prom inh | Insulin prom inh cell count | HSV replic up | HSV replic up primary fold | GALR2 ag | PKD1 kinase inh | RGS16-Gao |
| --- | --- | --- | --- | --- | --- | --- | --- |
| O=C(Nc1cccc(NC(=O)c2cccs2)c1)c1ccco1 | 29 | 118 | i | 0.95 | -1.4 | -6 | 95 |
| Cc1ccc2sc(NC(=O)CSc3nc(C)cc(C)c3C#N)nc2c1 | -22 | 99 | i | 0.73 | 0.3 | 3 | 97 |

Following part:
SMILES	Insulin prom inh	Insulin prom inh cell count	HSV replic up	HSV replic up primary fold	GALR2 ag	PKD1 kinase inh	RGS16-Gao
Cc1ccc(-c2nc(N)sc2CC(=O)OCC(=O)N2C(C)CCCC2C)cc1 (stereo not drawn)	-10	123	i	1.1	-2.1	2	66
FC(F)(F)c1cc(-c2ccco2)nc(NCc2ccccc2)n1	.	.	i	0.91	-0.3	11	96
O=C(COC(=O)c1ccc(F)cc1F)Nc1ccc2[nH]c(=O)[nH]c2c1	-12	97	i	1	.	5	101
CCOC(=O)NC(=O)COC(=O)CCCc1nc2ccccc2s1	5	64	i	0.95	.	-6	113
CCC(=O)Nc1cc(C)c(OC)c(C)c1	41	90	i	1.3	.	6	107
Cc1ccc(C2=Nc3ccccc3N=C(c3ccco3)C2)c(O)c1	-3	112	i	0.84	-0.8	12	108
CCOC(=O)c1cc2occc2n1CC(=O)Nc1ccc(OC)cc1OC	.	.	i	0.93	-2.0	-6	101
CN1C(=O)SC(Nc2ccccc2)C1=O (stereo not drawn)	-15	75	i	1	-1.5	11	46
COCCCN1C(=O)C(O)=C(C(C)=O)C1c1cccc(F)c1 (stereo not drawn)	.	.	.	.	0.3	2	93
COc1ccc(NC(=O)N(C2CCCCC2)C2CCN(C(C)C)CC2)c(OC)c1	-70	94	i	0.91	-1.8	-5	116
Cc1cc(C)cc(Cn2ncc(Cl)c(Cl)c2=O)c1	16	59	i	0.55	-1.8	1	108
COc1ccc(C(=O)NCc2cc(C)nc3ccccc23)cc1	7	102	i	0.61	.	-1	106
COc1ccc(NCc2nn(CC(=O)c3ccc(Br)cc3)c3[n+]2CCCCC3)cc1	-22	60	i	0.75	.	-4	106
CCN(CC)S(=O)(=O)c1cccc(C(=O)N[C@H](C(=O)O)C(C)C)c1	-50	68	i	0.94	-2.4	-4	113
O=c1ncn(-c2cccc(F)c2)c2ncccc12	52	85	i	1.1	-0.2	-7	97

Next part, starting with the last 4 of the part before.
SMILES	Insulin prom inh	Insulin prom inh cell count	HSV replic up	HSV replic up primary fold	GALR2 ag	PKD1 kinase inh	RGS16-Gao
COc1ccc(C(=O)NCc2cc(C)nc3ccccc23)cc1	7	102	i	0.61	.	-1	106
COc1ccc(NCc2nn(CC(=O)c3ccc(Br)cc3)c3[n+]2CCCCC3)cc1	-22	60	i	0.75	.	-4	106
CCN(CC)S(=O)(=O)c1cccc(C(=O)N[C@H](C(=O)O)C(C)C)c1	-50	68	i	0.94	-2.4	-4	113
O=c1ncn(-c2cccc(F)c2)c2ncccc12	52	85	i	1.1	-0.2	-7	97
Oc1cccc(C2c3[nH]c4ccccc4c3CCN2Cc2cnn(-c3ccccc3)c2)c1 (stereo not drawn)	.	.	i	0.82	.	13	97
Cc1ccc(S(=O)(=O)NC(=O)c2ccc(-c3ccc(-c4ccccc4)cc3)o2)c(C)c1	67*	80*	i	1.2	-0.1	8	109
O=C(O)c1cc2c([nH]c1=O)CCCC2	48	110	i	0.98	-3.6	-2	100
COC(=O)c1c(NC(=O)c2ccco2)sc(C)c1C	73	64	i	1.1	-2.7	-6	95
CCOC(=O)CSc1ncc(OC)c(Sc2ccc(Cl)cc2)n1	.	.	i	1.1	-1.4	10	99
O=C1Nc2ccccc2Oc2cc([N+](=O)[O-])ccc21	-75	147	i	1.3	.	1	103
Cc1ccccc1OCC(=O)N1N=C(C(F)(F)F)CC1(O)C(C)(C)C (stereo not drawn)	-43	102	i	0.96	-2.4	1	118
COc1cccc(CNC(=O)CCl)c1	.	.	i	0.93	-0.3	-1	103
Cc1ccc(S(=O)(=O)NNc2ccccc2)cc1	13	122	i	1.1	-0.4	-1	102
CC(O)CCc1nc2ccc(C(=O)O)cc2[nH]1 (stereo not drawn)	.	.	.	.	-1.9	-8	105
Cc1cccc2cc(CN(Cc3cccs3)C(c3nnnn3C3CCCC3)C(C)C)c(=O)[nH]c12 (stereo not drawn)	-23	125	i	0.96	-1.3	-7	105
Cc1nnc(-c2cccc(Br)c2)c2cn(-c3ccccc3Cl)nc12	.	.	i	0.91	-0.4	-6	105
CCN1CCc2c(OCC(=O)N3CCCCC3)cccc2C1=O	-44	106	i	0.96	.	-5	102
Cc1ccc(S(=O)(=O)N2CCCC(C(=O)O)C2)s1 (stereo not drawn)	.	.	i	0.85	0.3	-10	94
Cc1nnc(C)n1/N=C/c1cccnc1	58	109	i	1	-2.1	-9	104
COC(=O)c1c(C)oc(C)c1S(=O)(=O)N1CCCCC1	.	.	i	1	.	.	97
O=C(CSc1nnc(CN2CCOCC2)n1-c1ccccc1)Nc1ccc(Cl)cc1	-4	125	i	1	-2.1	-7	99
COc1ccccc1N1CCN(C(c2ccc(Cl)cc2)c2nnnn2C(C)(C)C)CC1 (stereo not drawn)	-6	91	i	0.99	-1.6	6	99
O=S(=O)([N-]c1nc2ccccc2nc1-[n+]1ccccc1)c1ccccc1	.	.	i	0.96	-0.8	1	99
CC(=S)c1c(C)cc2cc(C)ccn12	2	126	i	1	1.0	-10	103
CC(=O)C1=C(O)C(=O)N(c2nccs2)C1c1ccccc1F (stereo not drawn)	.	.	i	1.1	.	.	97
COc1cccc(C(=O)NCCOc2cc(C)cc(C)c2)c1	-26	102	i	1.1	-0.6	7	56
Oc1ccc(C=NCC2COc3ccccc3O2)cc1 (stereo not drawn)	-150	73	i	1	-1.9	-7	93
O=C(CSc1ccc(-c2ccco2)nn1)N1CCCC1	7	124	i	1	.	1	101
CCc1c(O)nc(SCc2nc3ccccc3c(=O)[nH]2)[nH]c1=O	.	.	i	0.94	.	1	100
CCNC(=S)NCc1ccc(Cl)cc1	52	144	i	1.1	-0.9	-3	.
Cc1cc(C)n(C2CCCCC2OC(=O)c2ccccc2F)n1 (stereo not drawn)	11	139	i	1.1	-0.4	-5	102
COc1cc(C2C3C(=O)N(Cc4ccccc4)C(=O)C3ON2c2ccccc2)cc(OC)c1OC (stereo not drawn)	-35	48	i	0.94	-0.7	-8	97
CC(C)c1ccc(C(=O)NC(=S)Nc2ccc3[nH]c(=O)[nH]c3c2)cc1	.	.	i	0.97	.	.	101
COc1ccc(C)cc1NC(=O)c1ccc(NS(=O)(=O)c2cccc3cccnc23)cc1	.	.	i	0.97	.	.	100
Cc1ccc(N(CC(=O)NCc2ccccc2Cl)S(=O)(=O)c2cccs2)cc1	-64	122	i	1	-0.4	-6	98
Cc1cc(C)c(NC(=O)C(C)c2cccc(C(=O)c3ccccc3)c2)c(C)c1 (stereo not drawn)	.	.	i	0.99	-0.7	-6	53
Cn1c2ccccc2c(=O)c2c(=O)n(C3CCCCC3)c(-c3ccco3)nc21	22	83	i	1.3	0.1	1	128
Cn1cccc1Cc1nnc(SCC(=O)Nc2cccc(Cl)c2)n1-c1ccc(F)cc1	.	.	i	1	-0.2	-10	100
CCC(=O)NC(=S)NNC(=O)c1ccc(OC)cc1	-50	100	i	0.89	-3.4	6	103
CC(=O)Nc1cccc(C(=O)Nc2cccnc2)c1	.	.	i	1.1	.	10	100
Cn1cccc1C(=O)OCC(=O)Nc1cc(C(C)(C)C)nn1-c1ccccc1	.	.	i	0.82	-1.4	-7	100
CN1CCC(=C2c3ccccc3C(O)c3ccccc32)CC1 (stereo not drawn)	.	.	i	0.88	.	.	100
Cc1nnc(SCC(=O)c2ccc(Cl)cc2)n(N)c1=O	.	.	i	1.1	.	-4	97
CC1CC(C)CN(CC(O)COCCOc2ccc(Br)cc2)C1 (stereo not drawn)	-38	106	i	0.86	-0.2	-7	106
COC(=O)c1ccc(NC(=O)c2sc3nc(-c4ccccc4)cn3c2C)cc1	.	.	.	.	-2.9	5	106
Cc1c([C@H]2[C@@H](CC#N)C2(C)C)c2ccccc2n1C	4	90	i	0.93	-1.4	0	99
O=C(c1ccccc1)N1CCC(c2nc(-c3ccc(S(=O)(=O)NCC4CCCO4)cc3)no2)CC1 (stereo not drawn)	.	.	i	1.2	1.1	-8	97
CC(=O)NC1=NC(=O)/C(=C/N2CCCCC2)S1	0	78	i	1.1	-1.4	-2	94
Cc1nn(Cc2ccc(F)cc2)c(C)c1NC(=O)c1noc2c1CCCCC2	.	.	i	1	-1.2	4	99

Reformatted: results already given.
smiles,Insulin prom inh,Insulin prom inh cell count,HSV replic up,HSV replic up primary fold,GALR2 ag,PKD1 kinase inh,RGS16-Gao
Cn1cccc1C(=O)OCC(=O)Nc1cc(C(C)(C)C)nn1-c1ccccc1,.,.,i,0.82,-1.4,-7,100
CN1CCC(=C2c3ccccc3C(O)c3ccccc32)CC1 (stereo not drawn),.,.,i,0.88,.,.,100
Cc1nnc(SCC(=O)c2ccc(Cl)cc2)n(N)c1=O,.,.,i,1.1,.,-4,97
CC1CC(C)CN(CC(O)COCCOc2ccc(Br)cc2)C1 (stereo not drawn),-38,106,i,0.86,-0.2,-7,106
COC(=O)c1ccc(NC(=O)c2sc3nc(-c4ccccc4)cn3c2C)cc1,.,.,.,.,-2.9,5,106
Cc1c([C@H]2[C@@H](CC#N)C2(C)C)c2ccccc2n1C,4,90,i,0.93,-1.4,0,99
O=C(c1ccccc1)N1CCC(c2nc(-c3ccc(S(=O)(=O)NCC4CCCO4)cc3)no2)CC1 (stereo not drawn),.,.,i,1.2,1.1,-8,97

(further entries)
SMILES	Insulin prom inh	Insulin prom inh cell count	HSV replic up	HSV replic up primary fold	GALR2 ag	PKD1 kinase inh	RGS16-Gao
C[N+]1(CC(O)COCC2COc3ccccc3O2)CCOCC1 (stereo not drawn)	.	.	i	0.94	.	-9	103
CCOc1cc(CNCCCN2CCOCC2)ccc1OCC(=O)NC(C)(C)C	6	124	i	1.2	.	8	102
N/C(=N\OC(=O)c1cccs1)c1cccc(Br)c1	.	.	i	1	.	-8	104
CC(=O)c1ccc(N2CCN(C(=O)Cc3cccs3)CC2)cc1	.	.	i	0.85	.	-5	99
Cc1cc(C)c(C)c(S(=O)(=O)Nc2ccccc2C(=O)NCCCn2ccnc2)c1C	-19	88	i	0.97	-1.2	0	74
CC(C)c1ccc(CNc2nc3nc4c(c(=O)n3[nH]2)CCC4)cc1	.	.	i	1	.	-1	99
CC(=O)Nc1cccc(NC(=O)Nc2cccc(F)c2)c1	.	.	i	1	.	-1	102

From PubChem
